miR-21 FLuc: miR-21 reporter, rising signal | HeLa miR-21 FLuc reporter, luciferase, 48 h | Potency, µM (doses to about 38.3 µM), for inactives: top-dose reporter change, positive = more light | 340,000 tested, under 10 active; active = well fitted rising curve with a large enough effect; inconclusive = small, poorly fitted or top-dose-only effect; inactive = no such curve, though single readings can be large or run the other way;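 note: % of control where 0% means no effect; miR-21 action dims this reporter so a rising signal means less miR-21 action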
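Using DMEM plus 10% FBS, HeLa miR-21-FLuc cells are incubated with test compounds (final up to about 40uM) for 48 hours; firefly luciferase signal is then imaged following reagent-mediated lysis.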
Rango release inh: inhibition of RanGTP-driven Rango-importin beta dissociation; Biochemical FRET Rango-importin beta, RanGTP-induced dissociation; AID 540253; 340,000 compounds, 0.071% hits; O95149+P62826; Potency, µM (highest dose often 46.1 µM), for inactives: top-dose activity change, negative = inhibition; active means falling FRET ratio curve, often poorly fitted, with flat reads before Ran was added; inconclusive means other falling curves, or compound fluorescence or quenching; inactive means flat or rising ratio curve;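 note: potency is the fitted concentration of half-maximal effect; % of control where 0% means no effect; nearly all actives have a fitted effect of over 45% in size; -100% = wells without RanGTP and RCC1; the record marks most hits as doubtful in a second field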
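Compounds sat 5 min at room temperature with 0.1 uM Rango biosensor plus 0.25 uM importin beta, then FRET pre-read. RanGTP-RCC1 (0.6 uM Ran, 2mM GTP, 0.2 uM RCC1) added for 45 min, and the CFP/YFP post-read measured blocked complex dissociation.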
Rango-impB inh: Rango-importin beta binding inhibition. Q14974. Rango CFP/YFP FRET sensor + importin beta, 45 min. Potency, µM (top dose mostly 92.2 µM), without a hit: at the top dose inhibition of complex formation. 340,000 compounds, 0.031% hits. AID 540263; active = rising FRET ratio curve, often small or poorly fitted; inconclusive = mostly compound fluorescence or quenching in the first reads; inactive = flat curves in all reads;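 note: potency is the fitted concentration of half-maximal effect; 0% = DMSO wells and 100% = buffer wells lacking importin beta; nearly all actives have a fitted effect of over 15% in size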
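Inhibition scored from the CFP 486 nm/YFP 530 nm FRET ratio 45 min after adding 0.125 microM importin beta to 50 nM Rango biosensor preincubated 5 min with compound (room temperature, PBS with DTT, Tween-20, BSA). No-importin wells as positive control.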
GLA inh pH 4.5: alpha-galactosidase A (human) inhibition, pH 4.5 | P06280 | purified enzyme, 4-MU-alpha-Gal fluorescence, pH 4.5 | activity change, negative = inhibition, % at 105 µM | 230,000 tested, under 10 active | AID 1467; inconclusive = small, poorly fitted or top-dose-only inhibition, or a rising curve; inactive = flat fitted curve, though single readings scatter; no compound was filed as active;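 note: 0% = full activity with enzyme and -100% = basal without enzyme; dose as in the result columns while the protocol names 77 µM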
Target sequence (P06280 whole entry, looked up): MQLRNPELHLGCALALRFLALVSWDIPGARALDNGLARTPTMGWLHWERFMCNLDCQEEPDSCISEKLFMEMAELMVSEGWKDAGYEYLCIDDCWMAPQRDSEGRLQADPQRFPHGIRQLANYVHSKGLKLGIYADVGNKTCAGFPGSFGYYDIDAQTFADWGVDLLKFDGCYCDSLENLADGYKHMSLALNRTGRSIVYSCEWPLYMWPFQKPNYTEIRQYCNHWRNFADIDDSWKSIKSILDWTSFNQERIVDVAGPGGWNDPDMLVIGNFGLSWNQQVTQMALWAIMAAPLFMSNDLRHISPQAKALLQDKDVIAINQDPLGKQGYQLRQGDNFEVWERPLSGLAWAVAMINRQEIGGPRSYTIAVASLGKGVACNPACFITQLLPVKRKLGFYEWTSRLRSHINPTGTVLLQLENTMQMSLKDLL
* hit, by the source's call; ? = inconclusive; . = no result given. Not all compounds are listed; rates above refer to the full screens.

SMILES	miR-21 FLuc	Rango release inh	Rango-impB inh	GLA inh pH 4.5
COc1nc(NC(C)C)nc(N(C#N)CN2C(=O)c3ccccc3S2(=O)=O)n1	1%	0%	0.8%	-10
COc1ccc(OC)c(CNS(=O)(=O)c2cn(C)cn2)c1	1%	17%	0.0%	.
CCn1c(O)c(N=NC(=O)c2cccnc2)c2cc(Br)ccc21	0%	0%	0.7%	-10
Cc1cc(OCC(=O)Nn2cnnc2)c(C)cc1Br	-2%	1%	2.6%	0
C(=N\n1cnnc1)/c1cccc(OCCOc2ccccc2)c1	-39%	6%	2.3%	1
COc1cccc(C(=O)NC(=S)Nc2cccnc2)c1	-48%	-7%	-3.3%	0
O=C(Nc1cccc(Cl)c1)OC1CCCCc2cccnc21 (configuration not stated)	11%	4%	-0.8%	-2
COc1ccc(CC(NC(C)=O)C(=O)NC2CCN(C(=O)Nc3ccccc3Cl)CC2)cc1OC (configuration not stated)	1%	1%	-1.8%	-1
CN(CC(=O)Nc1ccc(F)cc1)C(=O)COC(=O)C1=COCCO1	.	25%	-2.0%	.
N#Cc1ccc(NC(=O)CSc2nc3[nH]c(=O)cc(O)c3s2)cc1	.	?	-0.1%	.
CCOc1ccc(-n2c(CCc3ccccc3)n[nH]c2=S)cc1	-5%	6%	-0.2%	-3
NC(=O)c1ccccc1NS(=O)(=O)c1ccc2c(c1)OCCO2	0%	-1%	-0.6%	3
CCOc1cc(C(=O)N/N=C/c2ccoc2)cc(OCC)c1OCC	12%	4%	2.4%	.
CC(=O)Nc1ccc(C2=NNC(=Nc3cccc(S(=O)(=O)N(C)C)c3)SC2)cc1	?	-4%	-0.7%	-14
CC1CN(C(=O)CCS(=O)(=O)c2ccccc2)CC(C)O1 (configuration not stated)	-9%	14%	4.3%	.
CC(C)CC(=O)c1c[nH]c(C(=O)N2CCN(Cc3ccccc3)CC2)c1	4%	4%	-3.2%	-8
Cc1ccc(C2(c3ccccc3)NC(=O)N(CC(=O)N(C)C3CCS(=O)(=O)C3)C2=O)cc1C (configuration not stated)	.	2%	-1.8%	.
Cc1cc(C)nc(NC(=O)C2c3ccccc3Oc3ccccc32)n1	-6%	-1%	1.0%	2
Cc1cccc(-n2c(O)c(C=Nc3ccc(O)cc3)c3ccccc3c2=O)n1	-12%	?	?	-3
CC(C)C[C@@H](CSc1ccccc1)N1CCN(CC(C)C)CCC1=O	-39%	-5%	0.0%	.
COc1cc(C(=O)NCCN=C2NS(=O)(=O)c3ccccc32)cc(OC)c1OC	1%	11%	-1.2%	.
CCC(CC)NC(=O)Cc1ccc(S(=O)(=O)N2CCOCC2)s1	-3%	-7%	-0.6%	-13
Cc1cc(C)nc(OC(C(=O)O)C(OCc2ccccc2)(c2ccccc2)c2ccccc2)n1 (configuration not stated)	13%	-27%	1.9%	.
Cc1ccc(CN2CCC(c3cc(-c4ccc(Cl)cc4)n[nH]3)CC2)cc1	-3%	7%	1.3%	.
Cc1cccc(NC(=S)NNC(=O)c2ccc3c(c2)OCO3)c1	-76%	-1%	0.6%	8

(list continues)
SMILES	miR-21 FLuc	Rango release inh	Rango-impB inh	GLA inh pH 4.5
Cn1cc(S(=O)(=O)N2CCOCC2)cc1C(=O)Nc1ccc(Cl)cc1	11%	0%	1.1%	.
COc1ccc(N=c2scc(C)n2CCCN2CCCC2=O)cc1	-11%	-9%	-3.7%	0
O=C(NC(=S)N1CCN(c2nc(-c3ccccc3)cs2)CC1)c1cccnc1	-3%	16%	-0.4%	-6
CC(=O)N1CCc2cc(S(=O)(=O)NC(Cc3ccccc3)C(=O)O)ccc21 (configuration not stated)	0%	0%	1.5%	.
O=C1CCN(Cc2ccc(Br)cc2)CCN1CCO	0%	11%	0.4%	.
CC(C)(C)OC(=O)NCc1ccc(CNC(=O)c2ncn(Cc3ccccc3)c2C(=O)NCc2ccc(CNC(=O)OC(C)(C)C)cc2)cc1	.	-1%	-0.8%	.
Cc1cn(CC(=O)NCCc2ccccn2)c(=O)[nH]c1=O	.	-12%	-0.3%	.
CC(NS(=O)(=O)c1ccccc1)C(N)=O (configuration not stated)	-3%	-12%	0.2%	5
CCc1ccc(CNC(=O)c2nn(C)c3c2CS(=O)(=O)c2ccccc2-3)cc1	7%	6%	0.1%	.
CCOc1ccc(C(=O)N2CCCC(c3nc(-c4ccc(C)o4)no3)C2)cc1 (configuration not stated)	-4%	9%	0.4%	.
CC(C)(C)c1ccc(C(=O)NC(=S)NNC(=O)c2cccs2)cc1	-18%	-2%	-0.5%	-1
COc1ccc(NC(=O)CNS(=O)(=O)c2ccc3nc(C)sc3c2)c(OC)c1	-4%	6%	2.2%	-11
Cc1cc(C)c(NC(=O)CSc2nnc(SCC(=O)Nc3c(C)cc(C)cc3C)n2N)c(C)c1	1%	2%	1.6%	-1
CCOc1cccc(/C=N/NC(=O)c2cccnc2)c1O	16%	-12%	-3.7%	.
CCC(=O)Nc1nc(C)c(-c2csc(Nc3ccc(C(=O)O)cc3)n2)s1	2%	39%	2.5%	.
O=C(CCCN1CCC(O)(c2ccc(Br)cc2)CC1)c1ccc(F)cc1	.	-13%	-0.8%	-7
COc1ccc(CC(NC(C)=O)C(=O)N2CCN(C(=O)N(C(C)C)C(C)C)CC2)cc1 (configuration not stated)	0%	0%	0.0%	9
O=C(Cn1c(=O)oc2cccnc21)Nc1ccccc1Oc1ccc(Cl)cc1Cl	-1%	-24%	5.7%	2
CCSc1nc2c([nH]1)c(=O)n(C)c(=S)n2C	.	0%	1.6%	.
CCOC(=O)C1CCN(C(=O)CCNS(=O)(=O)c2ccc(C)cc2)CC1	.	-21%	-0.1%	.
O=C(NCc1nnnn1-c1ccc(F)c(F)c1)C(=O)c1c[nH]c2ccccc12	.	-15%	1.3%	.
CCNC(=S)NCc1ccc2c(c1)OCO2	-2%	2%	1.2%	4
CC(=O)N(Cc1ccccc1C)c1cccc(C)c1C	1%	8%	-0.8%	0
CCN(CC)CCCN(CC(=O)N(C)Cc1ccccc1)C(=O)c1ccc([N+](=O)[O-])cc1	0%	1%	8.0%	.
COc1ccc(NC(=O)C(CCSC)NC(N)=O)cc1Cl (configuration not stated)	0%	0%	7.4%	6

16 compounds from above, ordered by length of the SMILES, largest number first.
SMILES	miR-21 FLuc	Rango release inh	Rango-impB inh	GLA inh pH 4.5
CC(C)(C)OC(=O)NCc1ccc(CNC(=O)c2ncn(Cc3ccccc3)c2C(=O)NCc2ccc(CNC(=O)OC(C)(C)C)cc2)cc1	.	-1%	-0.8%	.
CCN(CC)CCCN(CC(=O)N(C)Cc1ccccc1)C(=O)c1ccc([N+](=O)[O-])cc1	0%	1%	8.0%	.
Cc1cc(C)c(NC(=O)CSc2nnc(SCC(=O)Nc3c(C)cc(C)cc3C)n2N)c(C)c1	1%	2%	1.6%	-1
CCc1ccc(CNC(=O)c2nn(C)c3c2CS(=O)(=O)c2ccccc2-3)cc1	7%	6%	0.1%	.
COc1ccc(NC(=O)CNS(=O)(=O)c2ccc3nc(C)sc3c2)c(OC)c1	-4%	6%	2.2%	-11
CCOc1ccc(C(=O)N2CCCC(c3nc(-c4ccc(C)o4)no3)C2)cc1 (configuration not stated)	-4%	9%	0.4%	.
O=C(NC(=S)N1CCN(c2nc(-c3ccccc3)cs2)CC1)c1cccnc1	-3%	16%	-0.4%	-6
CCOC(=O)C1CCN(C(=O)CCNS(=O)(=O)c2ccc(C)cc2)CC1	.	-21%	-0.1%	.
Cn1cc(S(=O)(=O)N2CCOCC2)cc1C(=O)Nc1ccc(Cl)cc1	11%	0%	1.1%	.
CC(C)(C)c1ccc(C(=O)NC(=S)NNC(=O)c2cccs2)cc1	-18%	-2%	-0.5%	-1
Cc1cn(CC(=O)NCCc2ccccn2)c(=O)[nH]c1=O	.	-12%	-0.3%	.
COc1ccc(N=c2scc(C)n2CCCN2CCCC2=O)cc1	-11%	-9%	-3.7%	0
COc1ccc(NC(=O)C(CCSC)NC(N)=O)cc1Cl (configuration not stated)	0%	0%	7.4%	6
CCOc1cccc(/C=N/NC(=O)c2cccnc2)c1O	16%	-12%	-3.7%	.
CC(=O)N(Cc1ccccc1C)c1cccc(C)c1C	1%	8%	-0.8%	0
CCNC(=S)NCc1ccc2c(c1)OCO2	-2%	2%	1.2%	4

More results follow:
SMILES	miR-21 FLuc	Rango release inh	Rango-impB inh	GLA inh pH 4.5
CCOC(=O)C1CCN(S(=O)(=O)c2ccc3[nH]c(=O)ccc3c2)CC1	-2%	-1%	5.1%	.
O=c1cc(-c2ccc(O)cc2)oc2c(-c3c(O)cc(O)c4c(=O)cc(-c5ccc(O)cc5)oc34)c(O)cc(O)c12	.	-16%	-3.7%	.
Nc1cc2[nH]c(=O)c3ccccc3c2cc1Br	.	-9%	7.2%	.
CCOc1ccc(C)cc1S(=O)(=O)n1ccc(C)n1	0%	-2%	-0.8%	2
CCN(CC)C(=O)COn1c(SCC(=O)N(CC)CC)nc2ccccc2c1=O	-2%	1%	-0.3%	-1
O=C(O)CSCC(=O)N1CCCCC1	5%	-2%	0.6%	5
S=C(NC1CC1)SCc1ccco1	.	-7%	0.4%	.
COc1cc(C)c(S(=O)(=O)n2ccc(C)n2)cc1C	7%	27%	-1.9%	-7
O=C(c1ccc(F)cc1)N(Cc1ccco1)C1CCS(=O)(=O)C1 (configuration not stated)	-4%	-4%	1.4%	.
Cc1ccc(C(C(=O)NC2CCCC2)N(Cc2ccccc2)C(=O)c2csnn2)o1 (configuration not stated)	3%	19%	4.3%	.
CCCc1ccc2oc(C(=O)NCCN3CCCC(O)C3)c(C)c2c1 (configuration not stated)	-34%	-9%	-0.4%	.
CCOC(=O)c1[nH]c(C)c(C(=O)OCC(=O)NCc2ccc(OC)cc2)c1C	.	-4%	-0.1%	.
CC(C)N(Cc1ccccc1)C(=O)COc1ccccc1	6%	2%	-1.3%	.
COc1ccc(S(=O)(=O)NCc2ccc(C(=O)O)cc2)cc1	-2%	8%	-2.8%	0
Cc1ccc(NC(=S)N(Cc2ccco2)C2CCN(C(C)C)CC2)cc1	-3%	-5%	1.8%	3
O=C(NC1CCCCC1)c1ccc(S(=O)(=O)NCc2cccnc2)cc1	3%	2%	-1.6%	6
COc1ccc(OC)c(NC(=O)C23CCC(C)(C(=O)O2)C3(C)C)c1 (configuration not stated)	-1%	20%	0.5%	0
COc1cccc(NC(=O)CN(C)CC(=O)Nc2ccc3c(c2)OCO3)c1	.	4%	-0.2%	.
Cn1ncc2c(Nc3cccc4ccccc34)ncnc21	-22%	23%	-1.3%	7
COc1ccc(-c2cc(=O)oc3c(C)c(OCC(=O)Nc4cccnc4)ccc23)cc1	0%	3%	0.4%	.
O=C(CCCN=C1NS(=O)(=O)c2ccccc21)Nc1ccc(Cl)cc1	.	-16%	-2.5%	.
CCCCCc1c(O)nc(SCC(=O)NCC2CCCO2)[nH]c1=O (configuration not stated)	-12%	1%	0.1%	0
Cc1ccc(NS(=O)(=O)c2cc(OCC(N)=O)c(C)cc2Cl)cc1C	-4%	8%	-0.5%	0
Cc1ccc(N2CCN(C(=O)c3cccs3)CC2)cc1C	-27%	11%	3.2%	.
Cc1csc(SCC(=O)NCc2ccc3c(c2)OCO3)n1	-5%	-11%	12%	-5

Limited to Rango-impB inh, miR-21 FLuc and Rango release inh, for some of the entries so far:
canonical_smiles | Rango-impB inh | miR-21 FLuc | Rango release inh
CCN(CC)C(=O)COn1c(SCC(=O)N(CC)CC)nc2ccccc2c1=O | -0.3% | -2% | 1%
CC(C)N(Cc1ccccc1)C(=O)COc1ccccc1 | -1.3% | 6% | 2%
CCCc1ccc2oc(C(=O)NCCN3CCCC(O)C3)c(C)c2c1 (configuration not stated) | -0.4% | -34% | -9%

Screening data as filed in PubChem BioAssay.
